Screens as filed in PubChem.
Vaccinia mCherry = qHTS for Stage-Specific Inhibitors of Vaccinia Orthopoxvirus: mCherry Reporter Primary qHTS. Potency, µM (doses to about 36.5 µM), for the others: at the top dose activity change, negative = inhibition, usual class: inhibitors. actives 0.63% (n = 310,000). AID 720579, 2013. Vaccinia virus mCherry reporter infection, fluorescence; about a quarter of the inactives have no number; active = well fitted inhibition curve with a large enough effect; inconclusive = small, poorly fitted or top-dose-only effect; inactive = no such curve, though single readings can be large or run the other way; tested in A549 cells; also: nearly all actives have a fitted effect of over 35% in size; inactives centre near -10
Vaccinia Venus = qHTS for Stage-Specific Inhibitors of Vaccinia Orthopoxvirus: Venus Reporter Primary qHTS. AID 720580, 2013. Vaccinia virus Venus reporter expression, fluorescence. Potency, µM (highest dose often 36.5 µM), without a hit: at the top dose activity change, negative = inhibition, actives largely listed as inhibitors. actives 0.46% (n = 330,000); active means well fitted inhibition curve with a large enough effect; inconclusive means small, poorly fitted or top-dose-only effect; inactive means no such curve, though single readings can be large or run the other way; tested in A549 cells; also: nearly all actives have a fitted effect of over 30% in size; inactives centre near -10
Numbers without * were called inactive; i = inactive; ? = inconclusive; · = not tested or not shown; & = joins results of further samples; [ ] = remark or other dose. % is scaled to controls: 0 for no effect and ±100 for the full control effect; potency is read from the fitted curve at half-maximal effect.

| smiles | Vaccinia mCherry | Vaccinia Venus |
| --- | --- | --- |
| COc1ccc(CNC(=O)c2cccc(N3CCCS3(=O)=O)c2)cc1 | -14% | 2% |
| COc1ccc(N(CC(=O)N/N=C(\C)c2ccc(OC)c(OC)c2)S(=O)(=O)c2ccccc2)cc1 | -6% | -9% |
| CCOC(=O)c1cnn(CCOC(=O)c2ccc(OC)cc2)c1NC(=O)c1ccc(OC)cc1 | -1% | -19% |
| O=C(CSc1nnc(COc2ccccc2Cl)o1)NC(=O)NC1CCCC1 | -18% | -11% |
| CC(=O)Nc1ccc(C(=O)OCC(=O)N2CC3(C)CC2CC(C)(C)C3)cc1 (stereo not given) | -3% | -13% |
| COC(=O)C1=C(c2ccc(C(C)=O)cc2)C[C@@H]2CC[C@H]1N2C(=O)NCCOc1ccccc1Cl | i | -9% |
| COC(=O)CCc1nc2cc(Cl)ccc2n(Cc2ccccc2)c1=O | i | -7% |
| COc1ccc(CC(=O)N2CCC(n3nccc3NC(=O)C3CCOC3)CC2)cc1 (stereo not given) | i | -20% |
| Cc1ccc(C(=O)CCC(=O)Nc2cccc(C(F)(F)F)c2)cc1 | · | ? |
| CCOC(=O)c1cc2c(c(CSc3nc4ccccc4c(=O)n3Cc3ccco3)c1)OCOC2 | -10% | -4% |
| O=C(NCCO)c1cccc(-c2ccc3nncn3c2)c1 | 6% | -2% |
| CCc1ccc(S(=O)(=O)NCCc2csc(-c3ccccc3)n2)s1 | ? | -16% |
| CC(C)CNC(=O)C(=O)NCC1OCCN1S(=O)(=O)c1cccs1 (stereo not given) | -17% | 7% |
| CC(C)COc1ccc(C(=O)N(Cc2cccc(F)c2)C2CCS(=O)(=O)C2)cc1 (stereo not given) | -10% | -11% |
| C=CCn1c(=NC(=O)c2sc3ccccc3c2Cl)sc2cc(S(N)(=O)=O)ccc21 | -25% | ? |
| COc1cccc(NS(=O)(=O)c2ccc3[nH]cc(C(=O)NCCc4ccc(C)cc4)c(=O)c3c2)c1 | -9%[7.34 µM] | -10%[7.34 µM] |
| CCc1ccc(NC(=O)Cn2c(SCc3ccc(C)cc3)nc3ccncc32)cc1 | -21% | -21% |
| C=CCN(c1ccccc1OC)S(=O)(=O)c1cccc(C(=O)OCC(=O)N2CC(C)OC(C)C2)c1 (stereo not given) | -19% | -29% |
| CN(C)/C=N/c1c(C#N)cnn1-c1ccc(C(F)(F)F)cn1 | -2% | 7% |
| Cc1ccc(CNC(=O)c2nc(-c3ccc(Cl)cc3)n3c2CCCCC3)cc1 | -25% | -13% |
| CC(C)NC(=O)NC1C2CC3CC(C2)CC1C3 (stereo not given) | · | -11% |
| O=C(O)c1ccccc1C(=O)Nc1ccc(S(=O)(=O)N2CCCC2)cc1 | 3% | -9% |
| CCN1C/C(=C/c2cccc([N+](=O)[O-])c2)C(=O)/C(=C/c2cccc([N+](=O)[O-])c2)C1 | -13% | -29% |
| CC1=C(C(=O)OCc2ccccc2)C(c2ccc(N(C)C)cc2)NC(=O)N1 (stereo not given) | -13% | -18% |
| COCCN(C(=O)COC(=O)CCC(=O)c1ccc(Cl)cc1)c1c(N)n(Cc2ccccc2)c(=O)[nH]c1=O | i | -9% |

Remaining list, next part.
| smiles | Vaccinia mCherry | Vaccinia Venus |
| --- | --- | --- |
| O=C(c1ccc2c(c1)N(Cc1ccc(Cl)cc1)C(=O)c1ccccc1S2=O)N1CCN(c2ccccc2F)CC1 (stereo not given) | ? | -29% |
| Cc1ccc(/C=N/Nc2nc(N3CCCCC3)nc(N3CCCCC3)n2)o1 | -3% | -7% |
| CC(=O)Nc1ccccc1NC(=O)C/C(C)=N/NC(=O)c1cccnc1 | -11% | 3% |
| N#CCCN(C(=O)COC(=O)c1cc(=O)c2ccccc2o1)c1ccccc1 | i | -6% |
| C[N+]1(CC(=O)OCCCc2ccccc2)CCCC1 | i | -10% |
| Cc1ccc(S(=O)(=O)N(C)C)cc1NC(=O)C(C)Sc1ccccc1 (stereo not given) | i | -1% |
| CCCNC(=O)c1cc(C2CCCCN2S(=O)(=O)c2cn(C)cn2)on1 (stereo not given) | -3% | -2% |
| CC(=O)O[C@H]1C(=O)[C@@]2(C)C([C@H](OC(=O)c3ccccc3)[C@]3(O)C[C@H](OC(=O)[C@H](O)[C@@H](NC(=O)c4ccccc4)c4ccccc4)C(C)=C1C3(C)C)[C@]1(OC(C)=O)CO[C@@H]1C[C@@H]2O (stereo not given in full) | -14%[20.9 µM] | -21%[20.9 µM] |
| Cc1onc(-c2ccccc2)c1C(=O)NC(=S)NNC(=O)c1cc(-c2ccc(F)cc2)n[nH]1 | -5%[7.34 µM] | -6%[7.34 µM] |
| CN1CCn2cnc(C(=O)NCc3ccccc3)c2C1=O | i | -8% |
| CCc1nn(CC(=O)NCCCc2ccccc2)c(=O)c2cc3c(OC)cccc3n12 | -9% | -3% |
| COCCn1c(SCC(=O)Nc2cc(C(C)(C)C)nn2-c2ccccc2)nc2ccccc2c1=O | -13% | 0% |
| CCOc1ccc(CCn2c3c(c(=O)[nH]c2=O)C(NC(=O)c2cccc(F)c2)(C(F)(F)F)C(=O)N3)cc1OCC (stereo not given) | -5% | -9% |
| CNC(=S)N1CCC(NC(=O)C23CC4CC(CC(C4)C2)C3)CC1 | 4% | 0% |
| COc1nccnc1NS(=O)(=O)c1ccc(N/C=C2\CCCCC2=O)cc1 | i | -2% |
| Cc1cc(-c2nnnn2-c2cc(Cl)cc(Cl)c2)no1 | -5% | 0% |
| CCCn1c(C)cc(C(=O)COC(=O)CN=C2NS(=O)(=O)c3ccccc32)c1C | -7% | 1% |
| Cc1nnc(SCC(=O)N2c3ccccc3CC2C)s1 (stereo not given) | -18%[1.46 µM] | -12% |
| Cn1c(-c2ccc3ccccc3n2)[n+](C)c2ccccc21 | -8%[7.34 µM] | -7%[7.34 µM] |
| Cc1ccc(NC(=O)NNc2cccc(Cl)n2)cc1 | -17% | -4% |
| COc1ccc(CN2C(=O)C(CC(=O)NC3CCCC3)CC(C(=O)N(C)C)=C2C)cc1 (stereo not given) | -20% | 1% |
| O=C(/C=C/c1ccco1)NC(=S)Nc1ccccn1 | -12% | ? |
| Cc1onc(-c2ccccc2)c1-c1ccnn1S(=O)(=O)c1ccc(Cl)cc1 | -6% | 0% |
| CC(=O)c1ccc(NC(=O)Nc2cccc(Cl)c2)cc1 | -8% | -24% |
| Cc1cccc(C)c1NC(=O)Nc1nc(CN(C)C)cs1 | -3% | 8% |

(further entries)
| smiles | Vaccinia mCherry | Vaccinia Venus |
| --- | --- | --- |
| Cc1sc2nc(CN3CCCC3)nc(NCc3ccncc3)c2c1C | i | -3% |
| C[C@@H]1CN([C@@H](C)CO)S(=O)(=O)c2ccc(Br)cc2O[C@@H]1CN(C)C(=O)C1CC1 | -14% | -8% |
| Cc1c(CCOC(=O)C23CC4CC(CC(C4)C2)C3)sc[n+]1CC#N | -5% | -15% |
| CN(CC(=O)Nc1ccc(OC(F)(F)F)cc1)C1CCCCC1 | -23% | -3% |
| Cc1ccccc1-c1cc(-n2ccnc2)ncn1 | i | -8% |
| CN(C)CCNC(=S)Nc1ccc(F)c(F)c1F | -8% | -18% |
| O=c1cc(Nc2ccc3c(c2)OCCO3)[nH]c(=O)n1-c1ccc(Br)cc1 | -18% | -16% |
| COc1ccc(-c2cn(CCC(=O)NCc3ccc(C)cc3)c(-c3ccncc3)n2)cc1 | i | -24% |
| C=CC[C@@H](CC(=O)OC(C)(C)C)C(=O)OC[C@@H]1CCCN1C(=O)[C@H](CC=C)CC(=O)NCCO | -6% | -15% |
| CCOc1ccc(S(=O)(=O)N2CCN=C2c2ccccc2)cc1 | ? | -25% |
| O=C(Nc1noc2ccccc12)c1c(F)cccc1F | -2% | -3% |
| CN(C)CCCN1C(=O)c2oc3ccc(Cl)cc3c(=O)c2C1c1cccnc1 (stereo not given) | -13% | 11% |
| Cc1ccc(/C=N/NC(=O)c2ccc(Br)o2)s1 | -9% | -21% |
| O=S(=O)(c1ccccc1)N1CN(c2ccc(F)cc2F)c2nc3ccccc3nc21 | -21% | -18% |
| O=C(CNCc1ccccn1)Nc1ccc([N+](=O)[O-])cc1C(=O)Nc1ccccc1F | i | -18% |
| N#CC1C=Cc2ccccc2N1C(=O)c1ccccc1 (stereo not given) | -30% | -14% |
| O=C(Nn1c(-c2ccccc2)nc2ccccc2c1=O)c1cccs1 | i | -12% |
| COc1cccc(CNC(=O)CCC2CCCN(C(=O)CCc3c(C)noc3C)C2)c1 (stereo not given) | -20% | -20% |
| Cn1cnnc1SC(C(=O)Nc1cc(Cl)cc(Cl)c1)c1ccccc1 (stereo not given) | -5% | -20% |
| Cc1cccc(N2C(=O)C(Cc3ccccc3)NC2=S)c1 (stereo not given) | -1% | -22% |
| COc1ccc(C(CNC(=O)c2ccc(C)c(S(=O)(=O)Nc3ccccc3OC)c2)N2CCCC2)cc1 (stereo not given) | -23% | -20% |
| CC(=O)N1N=C(c2ccccc2)OC1c1cccnc1 (stereo not given) | i | -10% |
| O=C(NC1CCN(Cc2ccccc2)CC1)c1ccc(Cn2c(=O)c3ccccc3n(Cc3ccc(Cl)cc3)c2=O)cc1 | ? | ? |
| Cc1cn(-c2cccnc2)c(C)c1CNC[C@H]1O[C@@H](n2cnc3c(N)ncnc32)[C@H](O)[C@@H]1O | i | -2% |
| Cc1nnc(Sc2nc3c(c(=O)n(C)c(=O)n3C)n2Cc2ccc(Cl)cc2)s1 | i | 0% |

Following part.
| smiles | Vaccinia mCherry | Vaccinia Venus |
| --- | --- | --- |
| CN(C)S(=O)(=O)c1cccc(NC(=O)Cn2cnc3ccccc3c2=O)c1 | -20% | -8% |
| CCOC(=O)c1sc2nc(NC(=O)C3CC3)sc2c1C | -12% | 2% |
| COc1ccc(C2(O)CN(c3ccc(C)cc3)C3=[N+]2CCCC3)cc1 (stereo not given) | -7% | -15% |
| CCNS(=O)(=O)c1ccc(OCCNS(C)(=O)=O)cc1 | -7% | 3% |
| CC(C)c1nc(SCC(=O)c2ccccc2)c2c(=O)n(C)c(=O)n(C)c2n1 | i | -23% |
| CCCc1cc(=O)[nH]c(Nc2cc(OC)ccc2OC)n1 | -15% | 16% |
| COc1cc(C(=O)Nc2nnc(CC(C)(C)C)s2)cc(OC)c1OC | -13% | -1% |
| O=S(=O)(NCCc1csc(-c2ccccc2)n1)c1ccc2c(c1)OCCO2 | · | -17% |
| CC1(C)C2([N+](=O)[O-])CN3CC1([N+](=O)[O-])CN(C2)C3C(O)C(O)C(O)CO (stereo not given) | i | 0% |
| O=C(NNC1=Nc2ccccc2SC1)c1ccc(F)cc1 | ? | -30% |
| CC(=O)c1cccc(NC(=O)N2CCC(CN3CCCCC3)CC2)c1 | -7% | -9% |
| CC(OC(=O)c1cc2sccc2n1C)C(=O)NCC1CCCO1 (stereo not given) | -7% | -15% |
| O=c1ccc(/C=C/c2ccccc2)nn1Cc1ccc(Cl)cc1Cl | · | -13% |
| COc1cccc(C(O)c2nc3ccccc3n2C(C)C)c1 (stereo not given) | -15% | -9% |
| CCOC(=O)C1C(C=C(C)C)C1(C)C (stereo not given) | i | 0% |
| Cc1cc(NC(=O)c2c(Br)cnn2C)no1 | i | 3% |
| O=C(COc1ccc(Br)cc1Br)Nc1ccc(S(=O)(=O)Nc2ncccn2)cc1 | -8% | -4% |
| CCOCCCNC(=O)c1ccc2c(c1)OCO2 | -7% | -4% |
| Nc1nc(SCC(=O)Nc2ccc(Cl)cc2)[nH]c(=O)c1-c1ccccc1 | -5% | 0% |
| CC(=O)C[C@H]1c2cc(C(F)(F)F)ccc2S(=O)(=O)N1C1CCCCC1 | -6% | -28%&-14% |
| O=c1c2ccc(Cl)cc2nc(-c2cccc(C(F)(F)F)c2)n1O | ? | ? |
| CCOC(=O)[C@@H]1[C@H]2COc3cc(OC)ccc3[C@H]2N2C(=O)N(c3ccccc3)C(=O)[C@]12C | i | -4% |
| Cc1ccc(S(=O)(=O)N(C)C)cc1NC(=O)COC(=O)CNC(=O)c1cccs1 | i | -8% |
| CCS(=O)(=O)N1CCC(NC(=O)C(Cc2cccc(OC)c2OC)NC(C)=O)CC1 (stereo not given) | -13% | -11% |
| CCOC(=O)c1ccc(NC(=O)CSc2nc(N)c(NC(=O)c3ccc(Br)o3)c(=O)[nH]2)cc1 | -8% | -3% |

Part of the list above, field by field:
Cc1cc(NC(=O)c2c(Br)cnn2C)no1
- Vaccinia mCherry: i
- Vaccinia Venus: 3%

CCOC(=O)c1ccc(NC(=O)CSc2nc(N)c(NC(=O)c3ccc(Br)o3)c(=O)[nH]2)cc1
- Vaccinia mCherry: -8%
- Vaccinia Venus: -3%

CCOC(=O)[C@@H]1[C@H]2COc3cc(OC)ccc3[C@H]2N2C(=O)N(c3ccccc3)C(=O)[C@]12C
- Vaccinia mCherry: i
- Vaccinia Venus: -4%

O=c1c2ccc(Cl)cc2nc(-c2cccc(C(F)(F)F)c2)n1O
- Vaccinia mCherry: ?
- Vaccinia Venus: ?

One compound at a time, from the list above:
COc1cccc(C(O)c2nc3ccccc3n2C(C)C)c1 (stereo not given) reads Vaccinia mCherry: -15%; Vaccinia Venus: -9%
COc1cc(C(=O)Nc2nnc(CC(C)(C)C)s2)cc(OC)c1OC reads Vaccinia mCherry: -13%; Vaccinia Venus: -1%
